Screening results from PubChem.
FGF22 binding: FGF22 (human) thermal shift binding; hit rate 1.5% among 340,000; recombinant FGF22 thermal shift, SYPRO orange fluorescence; percent of sucrose octasulfate shift, DMSO zero; calls only at 9.99 µM; Q9HCT0; AID 651658;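 active = melting point raised past a set limit in the mean and every replicate; three in four hits are not shown here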
Target sequence (Q9HCT0 whole entry, looked up): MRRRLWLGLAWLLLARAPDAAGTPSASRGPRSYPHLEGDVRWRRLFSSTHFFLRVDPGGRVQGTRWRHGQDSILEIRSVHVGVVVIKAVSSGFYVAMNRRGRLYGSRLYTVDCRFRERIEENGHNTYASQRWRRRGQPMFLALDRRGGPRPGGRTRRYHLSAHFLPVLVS
Ecoli rRNA inh: inhibitors of bacterial rRNA selective over humanized ribosomes; E. coli WT GFP vs humanized-ribosome RFP mutants, fluorescence, 24 h; stronger effect = lower value; DMSO median 0, no signal -100; GFP signal change (wild-type ribosome), % (test concentration not listed); hit rate 1.6% among 350,000; AID 720706;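 active = significant combined selectivity score with lowered wild-type GFP, culture density cut under 30%, mutant RFP and density less affected; inactive = any of these conditions unmet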; note: one replicate is shown; some compounds called inactive have numbers as strong as hits
Ecoli rRNA inh OD600: second read-out of Ecoli rRNA inh, no call of its own (marks repeat the call); OD600 change, %; measured here: OD600 growth;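 optical density of the mix in the first replicate; 0 = DMSO median and -100 = no signal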
Ecoli rRNA inh RFP: second read-out of Ecoli rRNA inh, no call of its own (marks repeat the call); RFP signal change, %; measured here: RFP humanized mutant strains;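 first replicate; 0 = DMSO median and -100 = no signal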
* marks the source's active call; other numbers are inactive results; i = inactive; x = no result given. The list is partial, so the mix of outcomes need not match the whole.

no.	canonical_smiles	FGF22 binding	Ecoli rRNA inh	Ecoli rRNA inh OD600	Ecoli rRNA inh RFP
1	Nc1nc2c(ncn2[C@@H]2O[C@H](C(=O)NC3CCCCC3)[C@@H](O)[C@H]2O)c(=O)[nH]1	i	28	24	4.9
2	C[C@H]1CN([C@@H](C)CO)C(=O)Cc2cc(NS(=O)(=O)c3cccs3)ccc2O[C@@H]1CN(C)S(=O)(=O)c1ccccc1	i	-1	-3	-0.1
3	O=C(N[C@@H]1CC[C@@H](CCNS(=O)(=O)c2cccc(Cl)c2)O[C@@H]1CO)c1ccncc1	i	-2	-1	-1.4
4	C[C@@H]1CN([C@@H](C)CO)C(=O)c2cc(-c3ccncc3)cnc2O[C@H]1CN(C)C(=O)Cc1ccccn1	i	2	7	-1.6
5	O=S(=O)(NCC[C@H]1CC[C@H](NS(=O)(=O)c2ccccc2Cl)[C@@H](CO)O1)c1ccc(Cl)cc1	i	-1	-14	9.6
6	C[C@@H]1CN([C@@H](C)CO)S(=O)(=O)c2ccc(-c3ccccc3)cc2O[C@@H]1CN(C)C(=O)c1ccc2c(c1)OCO2	i	-9	-16	1.1
7	CC(C)NC(=O)Nc1ccc2c(c1)C(=O)N([C@H](C)CO)C[C@@H](C)[C@@H](CN(C)C(=O)Nc1ccccc1)O2	i	4	6	-1.3
8	C[C@@H]1CN([C@H](C)CO)C(=O)c2cccc(NS(=O)(=O)c3ccccc3)c2O[C@H]1CN(C)C(=O)Nc1cccc2ccccc12	i	-3	0	1.1
9	Cc1noc(C)c1NC(=O)N(C)C[C@H]1OCCCC[C@H](C)Oc2ccc(NS(=O)(=O)c3cn(C)cn3)cc2C(=O)N([C@@H](C)CO)C[C@@H]1C	i	5	11	-1.8
10	CO[C@H]1CN(C)C(=O)c2ccc(NS(C)(=O)=O)cc2OC[C@H](C)N(Cc2ccccc2)C[C@@H]1C	i	-4	-10	3.1
11	CC(=O)N(C)C[C@H]1Oc2cc(-c3ccc(C)cc3)ccc2S(=O)(=O)N([C@H](C)CO)C[C@H]1C	i	-2	8	3.2
12	C[C@H](CO)N1C[C@H](C)[C@H](CN(C)CC2CCCCC2)Oc2ccc(NC(=O)C3CC3)cc2CC1=O	i	5	11	-1.2
13	COc1ccc(S(=O)(=O)N(C)C[C@@H]2Oc3c(NC(=O)c4ccc(-c5nccs5)cc4)cccc3C(=O)N([C@H](C)CO)C[C@@H]2C)cc1	i	-3	-8	2.0
14	COc1ccc(NC(=O)Nc2ccc3c(c2)[C@H]2C[C@@H](CC(=O)N(C)C)O[C@H](CO)[C@H]2O3)cc1	i	1	3	-2.5
15	C[C@@H]1CCCCO[C@@H](CN(C)Cc2ccc(C(=O)Nc3ccccc3N)cc2)[C@@H](C)CN([C@H](C)CO)C(=O)c2cc(NS(C)(=O)=O)ccc2O1	i	-3	-2	-1.5
16	CC(C)NC(=O)Nc1ccc2c(c1)C(=O)N([C@@H](C)CO)C[C@@H](C)[C@@H](CN(C)Cc1ccncc1)OCCCC[C@@H](C)O2	i	-1	5	-2.1
17	CN1C(=O)c2cc(NC(=O)C3CC3)ccc2OC[C@H]2O[C@@H](CC(=O)Nc3cccc(Cl)c3)CC[C@@H]21	i	-2	-7	-4.0
18	CN1C(=O)c2cc(NC(=O)C3CCCCC3)ccc2OC[C@@H]2O[C@H](CC(=O)NCCc3ccncc3)CC[C@H]21	i	-1	1	-1.3
19	CCN1[C@@H]2Cn3c(ccc(-c4ccccc4F)c3=O)[C@H]1[C@@H](C(=O)NCc1ccccc1)[C@@H]2CO	i	-3	-12	-0.5
20	COc1ccc(S(=O)(=O)N(C)C[C@@H]2Oc3ccc(NC(=O)Nc4c(C)noc4C)cc3CC(=O)N([C@H](C)CO)C[C@@H]2C)cc1	i	-3	-5	-3.7
21	O=C(C[C@@H]1C=C[C@H](NC(=O)NC2CCCCC2)[C@H](CO)O1)NCc1ccc(Cl)cc1	i	-3	-4	-2.3
22	Cc1noc(C)c1S(=O)(=O)Nc1ccc2c(c1)CC(=O)N([C@H](C)CO)C[C@H](C)[C@@H](CN(C)Cc1ccc(C(=O)O)cc1)O2	i	2	16	0.0
23	CO[C@@H]1CN(C)C(=O)c2ccc(NS(=O)(=O)CC(F)(F)F)cc2OC[C@H](C)NC[C@H]1C	i	1	-4	0.4
24	CNC[C@H]1Oc2ccc(NC(=O)NC(C)C)cc2CC(=O)N([C@@H](C)CO)C[C@H]1C	i	10	15	-0.3
25	CCCNC(=O)[C@@H]1[C@@H](CO)[C@@H]2Cn3c(ccc(-c4ccccc4)c3=O)[C@@H]2N1CC	i	-1	7	-3.8
26	COc1ccc2c3c([nH]c2c1)[C@@H](CO)N(C(=O)c1ccc(F)cc1)CC31CN(C)C1	i	1	-6	-1.2
27	CO[C@@H](CN(C)S(=O)(=O)c1cn(C)cn1)[C@H](C)CN(C(=O)Nc1ccc(F)cc1)[C@@H](C)CO	i	-4	-4	-1.4
28	CN(C)CC(=O)Nc1ccc2c(c1)[C@@H]1C[C@@H](CC(=O)NCC3CC3)O[C@H](CO)[C@@H]1O2	i	10	18	4.3
29	COCC(=O)Nc1ccc2c(c1)OC[C@H](C)N(C(=O)c1cnccn1)C[C@@H](C)[C@H](OC)CN(C)C2=O	i	3	3	1.9
30	Cc1ccc(S(=O)(=O)N(C)C[C@@H]2OCCCC[C@@H](C)Oc3ccc(NC(=O)Nc4ccc5c(c4)OCO5)cc3C(=O)N([C@@H](C)CO)C[C@H]2C)cc1	i	-2	-12	1.7
31	C[C@H](CO)N1C[C@H](C)[C@@H](CN(C)Cc2ccc(Oc3ccccc3)cc2)Oc2ccc(NC(=O)Cc3cn(C)c4ccccc34)cc2CC1=O	i	4	14	4.7
32	COc1cccc(-c2ccc3c(c2)[C@@H]2[C@@H](CCN2S(=O)(=O)c2ccc(F)cc2)[C@H](CO)N3C)c1	i	4	8	-2.2
33	Cc1ccc(S(=O)(=O)Nc2cccc3c2O[C@@H](CN(C)C(=O)Nc2ccc(C(F)(F)F)cc2)[C@@H](C)CN([C@@H](C)CO)C3=O)cc1	i	1	6	1.6
34	COc1ccc(NC(=O)Nc2ccc3c(c2)C(=O)N([C@@H](C)CO)C[C@@H](C)[C@@H](CN(C)Cc2ccc4c(c2)OCO4)O3)cc1	i	0	-10	5.3
35	O=C(C[C@H]1CC[C@H]2[C@@H](COC[C@@H](O)CN2S(=O)(=O)c2ccccc2)O1)Nc1ccc(-c2ccccc2)cc1	i	0	-20	16
36	COc1ccc(S(=O)(=O)Nc2ccc3c(c2)C(=O)N([C@@H](C)CO)C[C@H](C)[C@H](CN(C)Cc2ccc(-c4ccccc4)cc2)O3)cc1	i	4	3	5.2
37	C[C@H]1CN([C@@H](C)CO)C(=O)Cc2cc(NC(=O)Cc3ccccc3)ccc2O[C@H]1CN(C)S(=O)(=O)c1ccccc1	i	-1	-2	2.0
38	CN(C)C(=O)c1cccc(-c2ccc([C@@H]3[C@@H](CO)N4CCCCN(S(C)(=O)=O)C[C@H]34)cc2)c1	i	6	3	2.1
39	C[C@H](CO)N1C[C@H](C)[C@H](CN(C)C)Oc2ccc(NS(=O)(=O)c3ccc(Cl)cc3)cc2CC1=O	i	5	-4	-1.6
40	CC(=O)N(C)C[C@@H]1Oc2ncc(-c3cccc(F)c3)cc2C(=O)N([C@H](C)CO)C[C@@H]1C	i	1	11	-0.6
41	C[C@H](CO)N1C[C@H](C)[C@@H](CN(C)Cc2ccc(C(F)(F)F)cc2)Oc2ccc(NC(=O)C3CC3)cc2C1=O	i	-3	-8	-1.2
42	C[C@@H]1CN([C@@H](C)CO)C(=O)Cc2cc(NS(=O)(=O)c3ccc(Cl)cc3)ccc2O[C@H]1CN(C)C(=O)Nc1ccc(F)cc1	i	3	1	2.4
43	CO[C@H](C(=O)N(C)C[C@@H]1OCc2ccccc2-c2ccccc2C(=O)N([C@@H](C)CO)C[C@H]1C)c1ccccc1	i	1	-1	-0.6
44	C[C@@H]1CN([C@H](C)CO)C(=O)Cc2cc(NC(=O)Cc3ccccc3)ccc2O[C@@H]1CN(C)CC1CC1	i	2	7	2.7
45	COC(=O)C1=C(C)N(Cc2ccccc2C(F)(F)F)C(=NCc2ccccc2C(F)(F)F)NC1c1ccc(C(F)(F)F)cc1 (stereo not drawn)	i	22	22	4.4
46	CC(C)C(=O)Nc1ccc2c(c1)C(=O)N(C)[C@@H]1CC[C@@H](CC(=O)NCC3CC3)O[C@H]1CO2	i	4	4	-1.9
47	COc1ccc(S(=O)(=O)N2C[C@H](O)COC[C@H]3O[C@H](CC(=O)N[C@H]4CCN(Cc5ccccc5)C4)CC[C@@H]32)cc1	i	-1	3	2.7
48	C[C@H](CO)N1C[C@H](C)[C@@H](CN(C)Cc2ccc(C(=O)Nc3ccccc3N)cc2)Oc2ccc(NC(=O)Nc3cccc4ccccc34)cc2C1=O	i	2	3	-0.9
49	CCCCCCC12C(=Cc3cc4c(cc31)OCCO4)c1cc(OC)c(OC)cc1C(CC(=O)NC1CCCCC1)N2C(=O)OC (stereo not drawn)	x	19	25	4.1
50	COC(=O)C[C@H]1C[C@@H]2c3cc(N(C)C)ccc3O[C@@H]2[C@@H](CO)O1	i	6	-4	0.7

Of the compounds above, two have an NH in an aromatic ring:
no.	canonical_smiles	FGF22 binding	Ecoli rRNA inh	Ecoli rRNA inh OD600	Ecoli rRNA inh RFP
1	Nc1nc2c(ncn2[C@@H]2O[C@H](C(=O)NC3CCCCC3)[C@@H](O)[C@H]2O)c(=O)[nH]1	i	28	24	4.9
26	COc1ccc2c3c([nH]c2c1)[C@@H](CO)N(C(=O)c1ccc(F)cc1)CC31CN(C)C1	i	1	-6	-1.2

Additional structures follow.
no.	canonical_smiles	FGF22 binding	Ecoli rRNA inh	Ecoli rRNA inh OD600	Ecoli rRNA inh RFP
51	COc1ccc(NC(=O)N(C)C[C@H]2OCCCC[C@H](C)Oc3ccc(NS(=O)(=O)c4ccc(Cl)cc4)cc3C(=O)N([C@@H](C)CO)C[C@H]2C)cc1	i	0	6	-1.5
52	CO[C@H]1CN(C)C(=O)c2ccc(NC(C)=O)cc2OC[C@@H](C)N(CC2CCCCC2)C[C@H]1C	i	3	10	-1.0
53	O=C(Cc1ccncc1)NCC[C@H]1CC[C@@H](NC(=O)Nc2ccc(Cl)cc2)[C@H](CO)O1	i	3	5	-0.7
54	COc1ccc(S(=O)(=O)N(C)C[C@@H]2Oc3ncc(C#CC4(O)CCCC4)cc3C(=O)N([C@H](C)CO)C[C@@H]2C)cc1	i	1	4	-2.4
55	CN1CCN(C(=O)C[C@@H]2CC[C@@H]3[C@@H](COc4ccc(NC(=O)C5CCC5)cc4C(=O)N3C)O2)CC1	i	3	6	-0.7
56	COc1ccc(CN(C)C[C@H]2Oc3ccc(NC(=O)Cc4cn(C)c5ccccc45)cc3CC(=O)N([C@H](C)CO)C[C@@H]2C)cc1	i	3	0	10.0
57	COc1cc(CN2CC3(CN(C(=O)Nc4c(C)noc4C)C3)c3c(n(C)c4cc(OC)ccc34)[C@@H]2CO)cc(OC)c1	i	-2	-4	1.2
58	CC(C)CC#Cc1ccc2c(c1)O[C@H](CN(C)C(=O)c1cnccn1)[C@@H](C)CN([C@@H](C)CO)S2(=O)=O	i	-4	-7	-0.4
59	C[C@@H]1CN([C@@H](C)CO)C(=O)c2cc(C#CCN(C)C)cnc2O[C@@H]1CN(C)C(=O)NC1CCCC1	i	1	8	-1.2
60	COc1ccc(S(=O)(=O)N2CC3(CN(Cc4ccccc4OC)[C@H](CO)c4[nH]c5cc(OC)ccc5c43)C2)cc1	i	1	-3	0.4
61	CC(C)NC(=O)Nc1ccc2c(c1)C(=O)N([C@@H](C)CO)C[C@@H](C)[C@@H](CN(C)S(=O)(=O)c1cn(C)cn1)OCCCC[C@H](C)O2	i	-1	1	1.4
62	C[C@@H]1CN([C@H](C)CO)C(=O)Cc2cc(NC(=O)c3ccncc3)ccc2O[C@H]1CN(C)C	i	1	3	1.1
63	CC(=O)N(C)C[C@H]1Oc2ncc(-c3cccc(F)c3)cc2C(=O)N([C@H](C)CO)C[C@H]1C	i	1	4	-0.1
64	COc1ccc(S(=O)(=O)N2C[C@H](O)COC[C@@H]3O[C@H](CC(=O)N[C@@H]4CCN(Cc5ccccc5)C4)CC[C@H]32)cc1	i	3	3	-3.1
65	COc1ccc(C#Cc2ccc([C@H]3[C@@H](CO)N4CCCCN(C(=O)Nc5ccc(F)cc5)C[C@@H]34)cc2)cc1	i	5	19	2.3
66	CCCN(C)C[C@H]1Oc2cc(C#CC(C)(C)O)ccc2S(=O)(=O)N([C@H](C)CO)C[C@H]1C	i	5	12	-5.0
67	C[C@H]1CN([C@@H](C)CO)C(=O)c2cccc(NC(=O)c3nc4ccccc4s3)c2O[C@H]1CN(C)Cc1ccccc1	i	-9	-7	2.3

Structures above that have two or more sulfur atoms (three):
no.	canonical_smiles	FGF22 binding	Ecoli rRNA inh	Ecoli rRNA inh OD600	Ecoli rRNA inh RFP
2	C[C@H]1CN([C@@H](C)CO)C(=O)Cc2cc(NS(=O)(=O)c3cccs3)ccc2O[C@@H]1CN(C)S(=O)(=O)c1ccccc1	i	-1	-3	-0.1
5	O=S(=O)(NCC[C@H]1CC[C@H](NS(=O)(=O)c2ccccc2Cl)[C@@H](CO)O1)c1ccc(Cl)cc1	i	-1	-14	9.6
13	COc1ccc(S(=O)(=O)N(C)C[C@@H]2Oc3c(NC(=O)c4ccc(-c5nccs5)cc4)cccc3C(=O)N([C@H](C)CO)C[C@@H]2C)cc1	i	-3	-8	2.0
